From PubChem BioAssay
Biofilm kill mix = mixtures killing C. albicans biofilm; 0.02% of 120,000 active; C. albicans biofilm persisters + clotrimazole, fluorescence viability; primary screen in compound mixtures of four per well; inhibition, % at 7.6 µM; AID 1242;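 active = inhibition above 30.3% in the primary screen of four-compound pools, then above 30% when the compound was retested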;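 also: compounds exposed to preformed 24 h biofilms for 48 h; the number belongs to the whole pool; some results filed as inactive read as strong as hits; inactives centre near 12; 0% = biofilm with clotrimazole alone and 100% = kill control; retested singly at about 60 µM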
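Incubation: 24 h biofilm formation, then 48 h compound exposure, 37 °C | Material: C. albicans biofilms | Buffer or medium: RPMI/MOPS medium, pH 7.0 | Measured by: 2-h Alamar Blue fluorescence, 535/590 nm excitation/emission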
* marks the source's active call; other numbers are inactive results. A portion of the library (hit frequency here may not be typical).

SMILES	Biofilm kill mix
N#Cc1cccc(NC(=O)COC(=O)c2cccc(N3C(=O)c4ccccc4C3=O)c2)c1	13
O=c1[nH]cnc2c1c(-c1ccccc1)cn2-c1ccc(Br)cc1	18
Cn1c(=O)c2c(nc(SCc3nc(N)nc(N4CCCCC4)n3)n2C)n(C)c1=O	8
C=C(C)CSc1cc(C)c(C#N)c2nc3ccccc3n12	-6
CCCC(=O)Nc1ncnc2c1ncn2[C@@H]1O[C@@H]2COP(=O)(O)O[C@H]2[C@H]1OC(=O)CCC	12
CN(C)Cc1c(O)ccc2ccccc12	17
CSC1=NCCN1C(=O)c1c(-c2c(F)cccc2Cl)noc1C	12
O=C1/C(=C\c2cccnc2)SC(=S)N1c1ccc(F)cc1	8
Cc1c(C)[n+](=O)c2c(n1[O-])C(Br)CCC2Br (centres undefined)	24
CCCCN1C(=O)/C(=C2/Sc3ccccc3N2C)S/C1=N\c1ncn[nH]1	6
CC(CN1C(C)CCCC1C)OC(=O)c1ccccc1Cl (centres undefined)	-7
Cc1cc(C)cc(NC(=O)CN2CCN(CCN=CC3=C(O)CC(C)(C)CC3=O)CC2)c1	6
O=C(CC1C(=O)NCCN1Cc1c(F)cccc1Cl)NCCCn1cccn1 (centres undefined)	21
CC1CCCC(C)N1/N=C/c1cc(Br)cc(Br)c1O (centres undefined)	13
Clc1ccc(C2=NNC(=NCc3ccccc3)SC2)cc1	15
COc1ccc(-n2c3c(c(=O)[nH]c2=O)C(NS(=O)(=O)c2ccc(Cl)cc2)(C(F)(F)F)C(=O)N3)cc1 (centres undefined)	31
CN1/C(=C\C=C(C#N)C#N)C(C)(C)c2ccccc21	9
COc1ccc(NC(=O)C23CC4CC(C2)CC(c2ccccc2)(C4)C3)c(OC)c1	18
COc1cccc(N2CC(=O)N(c3cccc(OC)c3)CC2=O)c1	-8
COc1ccc(C2C3=C(CCCC3=O)Nc3n[nH]c(C)c32)cc1OC (centres undefined)	22
CCOC(=O)C1CCCN(C(=O)c2ccc(CNS(=O)(=O)c3ccc(C)cc3)cc2)C1 (centres undefined)	11
O=C(c1ccccc1Cl)N1CCn2c1nc1ccccc12	9
COc1ccc(CN2C(=O)NC(C)(c3ccc(C)cc3)C2=O)cc1F (centres undefined)	8
COc1cc([N+](=O)[O-])cc(/C=N/NC(=O)c2cc(-c3ccccc3)nc3ccccc23)c1O	11
Cc1nn(Cc2c(F)cccc2Cl)c(C)c1NC(=O)C1CC1	7
COC(=O)c1ccccc1NC(=O)CSc1nc2cccnc2n1C	23
C/C(=N\Nc1ccc(F)cc1F)c1ccc(N2CCOCC2)cc1	10
CCOc1ccc(Nc2ccc(N3C(=O)CCC3=O)cc2[N+](=O)[O-])cc1	10
Cc1ccc2[nH]c(=O)c3cc(C(=O)N(C)c4ccc(C)c(C)c4)sc3c2c1	16
CCCOC(=O)Nc1sc2c(c1C(N)=O)CCCC2	22

4 entries from above, as labelled records.
mol: Cc1c(C)[n+](=O)c2c(n1[O-])C(Br)CCC2Br (centres undefined)
- Biofilm kill mix = 24

mol: CCCCN1C(=O)/C(=C2/Sc3ccccc3N2C)S/C1=N\c1ncn[nH]1
- Biofilm kill mix = 6

mol: CC(CN1C(C)CCCC1C)OC(=O)c1ccccc1Cl (centres undefined)
- Biofilm kill mix = -7

mol: Cc1cc(C)cc(NC(=O)CN2CCN(CCN=CC3=C(O)CC(C)(C)CC3=O)CC2)c1
- Biofilm kill mix = 6

(next part)
SMILES	Biofilm kill mix
COC(=O)Cc1c(C)c2ccc(OC(C)C)cc2oc1=O	9
COc1ccccc1NC(=O)CCC(=O)c1ccc(-c2ccccc2)cc1	15
CNC(=O)Cn1c(C)cc(=O)c2cccc(C)c21	10
C=CCn1c(=O)c(C(=O)Nc2ccccc2S(N)(=O)=O)c(O)c2ccccc21	4
CCOC(=O)c1c2c3c(c(Cl)ccc3[nH]c1=O)C(=O)c1ccccc1-2	43
CC1CCCCN1C(=O)COc1ccc2ccc(=O)oc2c1 (centres undefined)	17
O=C(COc1ccc(Cl)cc1[N+](=O)[O-])N1CCCCCC1	10
COCCN1C(=O)C(=O)/C(=C(/O)c2ccc(S(=O)(=O)N3CCOCC3)cc2)C1c1ccc(O)cc1 (centres undefined)	5
Cc1c(O)ccc2c(CN3CCN(CCO)CC3)cc(=O)oc12	-3
COC(=O)CN1C(c2ccc(OC)cc2)=Nc2ccc(Cl)cc2C1c1ccccc1 (centres undefined)	20
Cc1ccc(-c2nnn(CC(=O)N(CCN3CCOCC3)C(C(=O)NC3CCCC3)c3ccncc3)n2)o1 (centres undefined)	12
Cc1cc(C)nc(-n2nc(C)c3c(C(=O)O)cc(-c4cccc(Br)c4)nc32)n1	16
CCc1ccc2nc3sc(C(=O)O)cc3cc2c1	2
COc1cc(OC)c(C2=NOC(C(=O)NCc3cccs3)C2)cc1Cl (centres undefined)	14
Cc1cccc(NC(=O)c2cc3c(s2)-c2c(C)cccc2OC3)n1	13
CN(C)S(=O)(=O)c1cccc(C(=O)OCC(=O)NC2CCCc3ccccc32)c1 (centres undefined)	18
COc1ccc(CCNC(=O)c2ccc(N(C)S(=O)(=O)c3ccc(C)cc3)cc2)cc1	14
C/C(=N\Nc1ccc(C#N)cc1[N+](=O)[O-])c1ccc(O)cc1	5
COc1ccc(NC(=O)CN(c2ccccc2)S(=O)(=O)N(C)C)cc1Cl	14
COc1ccccc1OCCOc1ccc(C(=O)c2ccccc2)cc1	19
CC12CCC(=O)N1C(C(=O)OCC(=O)Nc1cc(S(=O)(=O)N3CCCCC3)ccc1Cl)CS2 (centres undefined)	14
CS(=O)(=O)Nc1cccc(C2=NN(S(C)(=O)=O)C(c3ccccc3)C2)c1 (centres undefined)	12
CC(C)C1Nc2ccc(C(=O)O)cc2C2C=CCC21 (centres undefined)	5
COc1cc2c(cc1NC(=O)COC(=O)[C@@H](NS(=O)(=O)c1cccc(Cl)c1)C(C)C)oc1ccccc12	10
Cc1ccccc1-n1c(C)cc(/C=C2/C(=N)N3C(c4ccccc4)=CSC3=NC2=O)c1C	21
O=C(COC(=O)/C=C/c1ccccc1)NCC1CCCO1 (centres undefined)	-5
O=C(Nc1ccccc1N1CCOCC1)c1ccc(Cl)nc1	2
O=C(NCCCn1ccnc1)C(=O)NCC(c1ccco1)N1CCN(c2ccc(F)cc2)CC1 (centres undefined)	18
CCOC(=O)C(C)(C)N(Cc1ccc(Cl)cc1)S(=O)(=O)c1ccc(Cl)c([N+](=O)[O-])c1	9
Cc1ccc(C(=O)NCCc2cc3ccc(C)c(C)c3[nH]c2=O)cc1[N+](=O)[O-]	9
COc1ccc(C(=O)N/C(=C\c2ccco2)C(=O)NC2CCS(=O)(=O)C2)cc1 (centres undefined)	14
Cc1ccc(-n2[nH]c(C)c(/C=C3/C=Nc4ccccc43)c2=O)cc1C	15
CC(C)Cn1c(-c2cc([N+](=O)[O-])ccc2Cl)nc2c1c(=O)[nH]c(=O)n2Cc1ccccc1	14
CC(=O)Oc1ccc2c(=O)c(-c3ccccc3)coc2c1	29
COc1ccc(/C=N/NC(=S)Nc2ccccc2)cc1COc1cccc(C)c1C	15
CC(C)(C)OC(=O)N/N=C\c1cccnc1	7
O=C(Nc1nccs1)C(c1ccccc1)N1CCCCC1 (centres undefined)	4
C=CCOc1nc2c(c(=O)n(C)c(=O)n2C)n1Cc1ccc(Cl)cc1	19
COc1cccc(/C=N/N2C(=O)CSC2=S)c1O	9
CCCC(=O)C1=C(O)C(c2cccc(Oc3ccccc3)c2)CCC1=O (centres undefined)	14
COc1ccc2[nH]c3c(=O)n(/N=C/[C@H]4C(C)C=C(C)CC4C)c(=O)[nH]c3c2c1 (some centres undefined)	-10
O=C(Oc1ccc(Cl)cc1)c1ccc(N2CCOCC2)c([N+](=O)[O-])c1	3
CCc1noc(C)c1C(=O)N1CCCC(CCC(=O)NCc2ccc(F)c(F)c2)C1 (centres undefined)	-3
Cc1cc(C)c2[nH]c(=O)c(CN(Cc3ccccc3)C(=S)NCCCN(C)C)cc2c1	6
Cc1ccc(N(CC(=O)N/N=C/c2cccs2)S(C)(=O)=O)cc1	8
Cn1c(=O)c2c(SCc3ccccc3)nc(C3CC3)nc2n(C)c1=O	5
COc1ccc(/C=C/C(=O)NC(=S)NN2CCCCC2c2cccnc2)cc1 (centres undefined)	4
C/C(=N\NC(=O)C(c1ccncc1)N1CCOCC1)c1ccc(Br)cc1 (centres undefined)	20
O=C(NNc1c(Cl)cncc1Cl)c1cccs1	18
N#C/C(=N\Nc1cc(Cl)cc(Cl)c1)c1nnc2n1CCCCC2	19
CCCCNC(=O)C1(NC(=O)Nc2ccc(C)cc2)CCCCC1	12
O=C(CSc1nc2ccccc2s1)N/N=C/c1ccco1	6
COc1ccc2c(c1O)-c1ccccc1CCN(C)C2	15
O=C(NCc1ccccc1)C1=C[C@H](c2coc3ccccc3c2=O)C[C@H](OCc2ccc(CO)cc2)O1	5
COc1cccc2cc(C(N)=O)/c(=N/NC(=O)COc3ccc(Cl)cc3)oc12	19
Cc1ccc(COCCN2CCN(S(=O)(=O)c3ccc(C)cc3)CCC2=O)cc1	17
CCOC(=O)Cc1csc(NC(=O)c2cc(OC)cc(OC)c2)n1	20
CCOC(=O)N1CCN(C(=O)C2CCN(S(=O)(=O)c3ccc(F)cc3)CC2)CC1	2
CCCC(=O)C1=C(O)C(C(=O)OC)C(C)(C)CC1=NCCCCCC(=O)O (centres undefined)	15
CCCC(=O)NNC(=O)c1c(O)c2ccccc2[nH]c1=O	-1

The listing continues:
SMILES	Biofilm kill mix
CCN(CC)S(=O)(=O)c1ccc(Cl)c(C(=O)Nc2cc(C)nn2-c2ccccc2C(F)(F)F)c1	13
N#Cc1ccc(C(=O)CSc2n[nH]c(=O)n2Cc2ccco2)cc1	29
COc1ccc(NC(=O)CN2C(=O)CSC(C)C2=O)cc1 (centres undefined)	2
CCN(CC)c1ccc(/C=N/Nc2nc(C)cc(C)n2)cc1	25
COC(=O)CCC(=O)N1CCCC(CO)(Cc2ccccc2)C1 (centres undefined)	-3
Nc1c(C(=O)O)cnn1-c1ccccc1	2
O=C(COC(=O)C1(c2ccc(F)cc2)CCCC1)N1CCc2ccccc21	7
O=C1c2ccccc2N2C(=O)c3ccccc3C2N1Cc1ccccc1 (centres undefined)	13
CCCN1C(=O)/C(=C\C=C2/Sc3ccccc3N2CC)SC1=S	8
Clc1ccc(-c2ccn[nH]2)cc1	15
CNC(=S)NNC(=O)c1ccc(=O)n(Cc2cccc(C(F)(F)F)c2)c1	0
CCOC(=O)c1c(-c2ccc(Cl)cc2)csc1NC(=O)CNCc1ccco1	10
CC(C)=CCc1c(O)cc2oc3c(CC=C(C)C)c(O)c(O)c(CC=C(C)C)c3c(=O)c2c1O	15
CC(OC(=O)Cc1coc2cc3c(cc12)CCC3)C(=O)NC(N)=O (centres undefined)	11
Cc1cccc(NC(=O)c2ccc(OC3CSC3)cc2)c1	10
O=C(COc1ccc2ccccc2c1)Nc1ccc(S(=O)(=O)N2CCCCCC2)cc1	4
O=[N+]([O-])c1ccc2nc(-c3ccccc3[N+](=O)[O-])[nH]c2c1	7
C=CC[N+](C)(C)CC(=O)OCc1ccccc1	4
O=C(CC(NC(=O)c1ccccc1)c1ccccc1)Nc1cccc2ccccc12 (centres undefined)	15
CCCCOc1ccc(CSc2nc(C)[nH]c2[N+](=O)[O-])cc1[N+](=O)[O-]	10
Cc1cc(C)n(-c2nc(NCCCN(C)C)c3c4c(sc3n2)COC(C)(C)C4)n1	9
O=C(Oc1c(CN2CCOCC2)cc(Cl)c2cccnc12)c1cccs1	17
CNC(=O)NC(=O)C(C)OC(=O)c1oc2ccccc2c1CSc1ccc(Cl)cc1 (centres undefined)	10
Cn1c(C(O)C(O)c2ccccc2)nc2ccccc21 (centres undefined)	15
O=C(OCc1ccccn1)c1ccc(COc2ccc3ccccc3c2)o1	21
COCCN(C(=O)c1ccc2ccccc2c1)c1c(N)n(Cc2ccccc2)c(=O)[nH]c1=O	4
N#Cc1ccc(Oc2nc(C#N)cc(-c3ccccc3)n2)cc1	8
CCOC(=O)c1ccc(Cl)c(NC(=O)c2cccnc2)c1	26
CN(C)c1ccc(C(=S)N2CCCCC2)cc1Br	14
NC(=O)COC(=O)c1cccc(S(=O)(=O)N2CCN(c3ccc(F)cc3)CC2)c1	19
Cc1ccccc1S(=O)(=O)NCc1cccnc1	8
Cc1[nH]cnc1CSCc1ccc(Cl)cc1	-14
COc1ccc(CNC(=O)c2n[nH]c3ccccc23)cc1OC	11
CC(=O)c1ccc(Oc2cc(-c3ccccc3)nc(-c3ccccc3)n2)cc1	19
N#C/C(=C\C=C\c1ccccc1)C(=O)NCc1ccco1	14
Cc1ccc2c(c1)C(c1ccncc1)=NNC(c1cccnc1)=N2	5
Cc1ccc(C(C)C)c(OCc2nn(CC(=O)c3ccc(OC(F)F)cc3)c3[n+]2CCCCC3)c1	3
O=C(c1ccc(F)cc1)C1CCN(C(=S)Nc2ccccc2Cl)CC1	19

Sorted by formula weight (largest number first): some entries from above
SMILES	Biofilm kill mix
O=C(c1ccc(F)cc1)C1CCN(C(=S)Nc2ccccc2Cl)CC1	19
CC(=O)c1ccc(Oc2cc(-c3ccccc3)nc(-c3ccccc3)n2)cc1	19
N#C/C(=C\C=C\c1ccccc1)C(=O)NCc1ccco1	14
